Source: PubChem (National Center for Advancing Translational Sciences (NCATS))
LASV entry inh: blocks Lassa virus binding to or entry into cells; Lassa virus pseudotype entry inhibition, cell reporter; control for the full effect not named in the record; Potency, µM (highest dose often 37.9 µM), without a hit: at the highest dose activity change, negative = inhibition, usual class: inhibitors; hit rate 1.2% among 300,000; active means well fitted inhibition curve with a large enough effect; inconclusive means small, poorly fitted or top-dose-only effect, or effect the other way; inactive means flat fitted curve, though single readings scatter; tested in HEK293 cells; note: % is set by controls: 0 for no effect and ±100 for the full control effect; nearly all actives have a fitted effect of over 50% in size; luciferase read-out
MARV entry inh: Marburg virus entry inhibition | Potency, µM (titrated, usually from 37.8 µM), without a hit: top-dose activity change, negative = inhibition, usual class: inhibitors | Marburg virus pseudotyped entry inhibition, cell reporter; control for the full effect not named in the record; about a third of the inactives were read at about 46 µM | hit rate 1.8% among 300,000; active = well fitted inhibition curve with a large enough effect; inconclusive = small, poorly fitted or top-dose-only effect, or effect the other way; inactive = flat fitted curve, though single readings scatter; tested in HEK293 cells; about a fifth of its hits are not listed in these tables; note: % is set by controls: 0 for no effect and ±100 for the full control effect; luciferase read-out
2A StopGo: lowers the luciferase signal of an FMDV 2A StopGo reporter | Potency, µM (top dose mostly 57.9 µM), for inactives: top-dose signal change, negative = less light | hit rate 1.2% among 410,000 | human cells with a luciferase reporter of 2A StopGo recoding; control for the full effect not named in the record; active = well fitted falling curve with a large enough effect; inconclusive = small, poorly fitted or top-dose-only effect; inactive = no such curve, though single readings can be large or run the other way; tested in HEK293T cells; note: % is set by controls: 0 for no effect and ±100 for the full control effect; nearly all actives have a fitted effect of over 45% in size; luciferase light after 4 h
Cruzain noTriton: blocks cruzain activity in detergent-free assay | P25779 | purified cruzain, Z-FR-AMC fluorescence, no detergent | Potency, µM, inactives show max response, negative = inhibition, hits mostly inhibitors | hit rate 2.3% among 200,000 | AID 1476;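 note: plate controls were enzyme without inhibitor for no effect and buffer without enzyme for full effect; nearly all actives have a fitted effect of over 40% in size; top concentration of the series not given in the record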
Target sequence (P25779 123-467 limits assumed): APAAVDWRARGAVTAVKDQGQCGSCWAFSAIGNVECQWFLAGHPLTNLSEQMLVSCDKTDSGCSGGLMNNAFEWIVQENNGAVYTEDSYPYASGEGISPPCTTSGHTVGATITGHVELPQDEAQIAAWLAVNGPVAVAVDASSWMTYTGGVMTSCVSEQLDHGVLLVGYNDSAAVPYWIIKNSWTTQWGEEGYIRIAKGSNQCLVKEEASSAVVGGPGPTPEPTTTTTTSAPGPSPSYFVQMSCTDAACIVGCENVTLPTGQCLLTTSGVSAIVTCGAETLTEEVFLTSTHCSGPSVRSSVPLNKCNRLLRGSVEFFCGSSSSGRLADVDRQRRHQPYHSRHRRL
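Purified cruzain at 1.5 nM, pre-incubated 15 min with compound at room temperature in 100 mM sodium acetate pH 5.5, 5 mM DTT, 0.00005% Triton X-100. Reaction started with 2 uM Z-FR-AMC; AMC fluorescence increase over 60 s gives rate.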
Cruzain Triton: blocks cruzain activity in presence of Triton detergent; Potency, µM, inactives show max response, negative = inhibition, actives largely listed as inhibitors; purified cruzain, Z-FR-AMC fluorescence, 0.01% Triton; hit rate 0.43% among 200,000;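 note: plate controls were neutral wells for no effect and buffer without enzyme for full effect; nearly all actives have a fitted effect of over 40% in size; top concentration of the series not given in the record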
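15 min RT preincubation of 1.5 nM cruzain with compound, then 2 uM Z-FR-AMC added; kinetic AMC fluorescence, 60 s delta. Triton X-100 0.01%, pH 5.5.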
NS1 function inh: inhibitors of influenza NS1 protein function; S. cerevisiae slowed by influenza A NS1, growth recovery by OD600; Potency, µM (highest dose often 46.1 µM), without a hit: top-dose activity, positive = more growth; hit rate 0.4% among 270,000; AID 2326; active means well fitted rising curve with a large enough effect; inconclusive means small, poorly fitted or top-dose-only effect; inactive means no such curve, though single readings can be large or run the other way; note: nearly all actives have a fitted effect of over 50% in size
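Recovery from NS1-induced slow growth read by OD600 in budding yeast switched to galactose assay medium (pH 6.0, -URA) at 1:100 dilution. Compound 23 nl per well; the matching strain lacking NS1 serves as control.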
RE007 growth inh: less growth of the S. pombe RE007 Vpr strain; hit rate 0.21% among 360,000; Potency, µM (series often up to 92.2 µM), without a hit: top-dose activity change, negative = less growth; S. pombe RE007 Vpr strain, BacTiter-Glo ATP luminescence, 24 h; control for the full effect not named in the record; active = well fitted falling curve with a large enough effect; inconclusive = small, poorly fitted or top-dose-only effect; inactive = no such curve, though single readings can be large or run the other way;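 note: % is set by controls: 0 for no effect and ±100 for the full control effect; nearly all actives have a fitted effect of over 50% in size; the assay follows cell death caused by Vpr and the record does not say whether a fall means rescue or toxicity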
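Fission yeast strain RE007, carrying one chromosomally integrated HIV-1 vpr copy, was seeded at OD 0.01 in PMG+AL medium with 23 nL pinned compound. After 24 h at 30 °C and 99% humidity, viability was read by BacTiter-Glo luminescence.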
SARS PLpro yeast: SARS-CoV PLP inhibition in yeast. S. cerevisiae expressing SARS-CoV PLpro, growth rescue; control for the full effect not named in the record. hit rate 0.19% among 330,000. Potency, µM (titrated, usually from 32.9 µM), without a hit: top-dose activity, positive = growth rescue; active means well fitted rising curve with a large enough effect; inconclusive means small, poorly fitted or top-dose-only effect; inactive means no such curve, though single readings can be large or run the other way; note: 0% is about no effect; nearly all actives have a fitted effect of over 55% in size; growth read by luminescence after 48 h
* marks the source's active call; other numbers are inactive results; ? = inconclusive; . = no result given; & = joins results of further samples; [ ] = remark or other dose. Unless noted, calls come from the whole dose curve; as a rule, active = well fitted curve in the direction sought with a large enough effect; inconclusive = small, poorly fitted or top-dose-only effect, or another doubt; inactive = no such curve, though single readings can be large; an effect the other way counts as inactive or inconclusive. Potency is the fitted concentration of half-maximal effect. Compounds as they come. About 4.8% of those tested had a hit in this group.

SMILES	LASV entry inh	MARV entry inh	2A StopGo	Cruzain noTriton	Cruzain Triton	NS1 function inh	RE007 growth inh	SARS PLpro yeast
Cc1cc(S(=O)(=O)n2ccnc2C(C)C)cc([N+](=O)[O-])c1C	?	-3%[46.1 µM]	-7%	-2%	-0.4%	.	.	.
CCCS(=O)(=O)N1CCCC(C(=O)NCCN(Cc2ccccc2)C(C)C)C1 (stereo not given)	4%	-1%	-6%	-8%	2.0%	-2%	-28%	?
Cc1ccc(OCCOC(=O)c2c(-c3ccccc3)noc2C)cc1	?	?	-1%	.	.	-37%	-1%	-8%
Cc1oc(-c2ccc(Cl)cc2)nc1CN1CCC(C(=O)NCC2CCCO2)CC1 (stereo not given)	7%[46.1 µM]	-2%[46.1 µM]	19%	.	.	-3%	-9%	-1%
O=C(NC1CCN(Cc2ccccc2)CC1)c1cn(-c2ccccc2)nc1-c1cccnc1	-3%[46.1 µM]	11µM*	-19%	.	.	.	9%	-4%
O=C1CC(C(=O)N2CCc3ccccc32)CN1c1ccccc1 (stereo not given)	1%[46.1 µM]	-14%[46.1 µM]	14%	.	.	-7%	-7%	0%
OCC1(Cc2ccc(F)cc2)CCCN(CCCC(F)(F)F)C1 (stereo not given)	.	.	-15%	.	.	2%	5%	0%
O=C(Nc1ccc(S(=O)(=O)N2CCCC2)cc1)c1ccc(Br)o1	?	-2%[46.1 µM]	12%	.	.	-5%	23%	-1%
CN1C(=O)CCC(CCC(=O)O)(c2ccccc2O)C1=O (stereo not given)	34%	-9%	-10%	.	.	-3%	-3%	2%
CC(=O)c1ccc(S(=O)(=O)Nc2ccc(C(=O)N3CCC3)cc2)cc1	0%[46.1 µM]	16%	0%	.	.	.	-15%	1%
Cc1cc(C)c2oc(=O)cc(CN3CCOCC3)c2c1	0%	16%	15%	2%	-5.2%	-9%	-5%	-12%
O=C(Cc1n[nH]c(=O)c2ccccc12)NC(c1ccccc1)c1ccccc1	.	.	5%	.	.	13%	10%	1%
Cc1cc(NC(=O)COc2ccc3ccccc3c2)no1	16%[46.1 µM]	17%[46.1 µM]	14%	.	.	0%	-17%	2%
COc1cc2[nH]c3c(N4CCN(c5ccc(Cl)cc5)CC4)ncnc3c2cc1OC	1%	?	-22%	?	-2.8%	-42%	-3%	-7%
COc1ccc(NC(=O)CS(=O)(=O)c2cccc(Cl)c2)cc1	5%[46.1 µM]	11%[46.1 µM]	14%	.	.	-2%	-15%	11%
Fc1ccccc1N1CCN(c2ncc3c(n2)CCN(Cc2cc(Br)cs2)C3)CC1	?	.	?	8%	1.4%	.	.	.
O=C(Cn1cc([N+](=O)[O-])cn1)NCc1ccccc1Cl	-3%	3%[46.1 µM]	34%[activator]	.	.	.	20%	.
O=C(Nc1scc(-c2ccccc2)c1C(=O)O)c1ccc(F)cc1	.	.	39%[activator]	.	.	-74%	4%	?
Cc1csc(NC(=O)CSc2nc(C(C)C)nc3ccccc23)n1	?	?	?	.	.	-28%	1%	-3%
COC(=O)c1ccc(C)c(NC(=O)COC(=O)C2CC3CCCC(C2)C3=O)c1 (stereo not given)	-4%	15%	-9%	.	.	.	-4%	0%
COC(=O)Cc1c(C)c2ccc(O)c(CN3CCCC(C)C3)c2oc1=O (stereo not given)	16%	?	-3%	?	25µM*	3%	4%	-9%
Cc1cccc(C)c1NC(=O)COC(=O)c1nonc1N	7%	-8%	0%	0%	5.2%	-4%	-3%[3.69 µM]	0%
Nc1ccccc1SCc1cn2ccccc2n1	?	?	0%	-3%	-2.7%	-6%&-8%	-6%	-22%
O=S(=O)(Nc1nc2n(n1)C(c1ccccc1)C=C(c1ccc(Cl)cc1)N2)c1ccccc1 (stereo not given)	7%[46.1 µM]	10%[46.1 µM]	-16%	5%	-5.6%	.	.	.
CCOCCCNCC(=O)Nc1ccc(OC(F)(F)F)cc1	7%	10%[46.1 µM]	-4%	-8%	0.0%	1%	-6%	7%
COc1cccc2cc(-c3nc(-c4cccs4)cs3)c(=O)oc12	-4%	?	69%[activator]	?	-0.5%	-5%	-5%	4%
N#C/C(=C(/O)c1ccc([N+](=O)[O-])o1)c1nc2ccccc2[nH]1	.	.	-18%	.	.	-4%	-14%	-1%
CCOC(=O)c1cccc(NC(=O)N[C@@H](C)C(=O)OC)c1	1%	3%	15%	-4%	3.0%	-12%	14%	3%
COc1ccc2c(c1)c(C(=O)CN1CCC3(CC1)OCCO3)c(C)n2C	9%	8%	-28%	15%	-1.1%	?	3%	0%
O=C(COc1ccc2c(c1)CCC2)NCc1cccc(Cl)c1	?	?	-16%	-5%	-10%	-16%	-5%	-3%
COc1ccc(CNC(=O)c2c(N)n(CCCN3CCOCC3)c3nc4ccccc4nc23)cc1	23µM*	16µM*	?	?	-15%	18%	27%	1%
COC(=O)CCS(=O)(=O)c1cc(Cl)ccc1Cl	7%	5%	4%	-6%	-5.1%	13%	1%	7%
CCCCn1c(N)c(N(CC(C)C)C(=O)c2cc(-c3ccc(F)cc3)nc3ccccc23)c(=O)[nH]c1=O	?	?	-7%	.	.	.	-20%	2%
O=C(CN1CCCCC1)Nc1cccc(Oc2ccccc2)c1	-1%	?	-15%	9%	6.4%	-2%	-9%	0%
COc1cc(/C=C(\NC(C)=O)C(=O)Nc2ccccc2C)ccc1OC(C)=O	21%	-4%	-3%	16%	-0.7%	-5%	-6%	1%
C=CCc1ccc(OCC(O)COc2ccc(CC=C)cc2OC)c(OC)c1	?	4%	-16%	?	-7.3%	-33%	?	-6%
CCc1c(O)nc2ccccn2c1=O	1%	4%&4%	-4%	1%	-2.8%	3%	-8%	-10%
Cc1c(CCOC(=O)c2cccc([N+](=O)[O-])c2)sc[n+]1CC(=O)c1ccccc1	.	.	-7%	.	.	6%	-22%	0%
Clc1cccc(CSc2nnc(-c3cccnc3)n2Cc2ccco2)c1	-1%	-18%	-24%	-2%	-0.6%	-10%	-4%	?
O=C(NC1=C(Nc2ccc(Cl)cc2)C(=O)c2ccccc2C1=O)c1ccccc1	?	?	-17%	-13%	-5.8%	-13%	?	10%
CCOC(=O)c1ccc(NC(=O)CSc2ccc(-c3cccnc3)nn2)cc1	?	?	?	.	.	.	1%	0%
Cc1cccc(/C=N/n2c(COc3ccccc3)n[nH]c2=S)c1	.	.	-8%	.	.	-14%	18%	-3%
CCCCC(=O)NC(=S)Nc1ccc(Cl)c(C(=O)O)c1	25%	-21%[14.2 µM]	-5%	.	.	-1%	9%	0%
CCN(CC)C(=O)n1c(Cc2ccccc2)nc2ccccc21	-3%	7%	-25%	.	.	20%	2%	16%
COc1cc(/C=C/c2cc(C(F)(F)F)[nH]c(=O)n2)cc(OC)c1OC	?	?	?	.	.	6%	3%	0%
CCOc1ccccc1CNC(=O)CCc1c(C)nn(-c2ccc(N3CCCCC3)nn2)c1C	-22%[46.1 µM]	.	-11%	-6%	-5.8%	.	.	.
CN1CCN(c2ccc(C(=O)c3ccc(Br)cc3)cc2[N+](=O)[O-])CC1	16%	7.9µM*	?	.	.	-11%	-7%	-3%
CC(=O)Nc1ccc(OCC[n+]2cccc(C(N)=O)c2)cc1	5%[46.1 µM]	-6%[46.1 µM]	-1%	.	.	.	-17%	2%
CCCCc1ccc(NC(=O)N2CCNC(=O)C2CC(=O)Nc2ccsc2C(=O)OC)cc1 (stereo not given)	-15%	0%	-18%	.	.	8%	2%	-3%
COc1ccc(-n2nnnc2-c2nc3ccccc3s2)cc1	?	?	-50%	-26%	-0.9%	-14%	9%	-19%
Later entries:
SMILES	LASV entry inh	MARV entry inh	2A StopGo	Cruzain noTriton	Cruzain Triton	NS1 function inh	RE007 growth inh	SARS PLpro yeast
Cc1cc(N2CCCCC2)nc2ccc(NC(=O)/C=C/c3ccc(OCCC(C)C)cc3)cc12	-1%[46.1 µM]	-3%[46.1 µM]	-8%	-2%	-1.8%	.	.	.
Cc1cccc(NC(=O)CN2CCN(C(=O)C3CCCO3)CC2)c1C (stereo not given)	-16%	2%	3%	.	.	15%	10%	-5%
Fc1ccccc1Nc1nc2ccccc2o1	?	?	-34%	.	.	-31%	?	-5%
CCC(=O)Nc1cccc(-c2nc3ccc(C)cc3o2)c1	-21%[46.1 µM]	?	17%	.	.	-111%	-10%	-11%
COc1ccc(/C=N/Nc2nc(C)c([N+](=O)[O-])c(N(C)c3ccccc3)n2)cc1OC	-24%	?	0%	-4%	-2.5%	16%	6%	2%
Cc1ccc(C(=O)N/C(=C\c2ccco2)C(=O)NCCc2c[nH]c3ccccc23)cc1	?	?	19%	4%	-3.7%	21%	-7%	0%
CC1CCCN(C(=O)COC(=O)c2cccc(NS(=O)(=O)c3ccccc3)c2)C1 (stereo not given)	-13%	11%	30%	.	.	.	-8%	3%
C=CCN(CC=C)C(=O)C1CCN(Cc2ccc(OCc3ccccc3)cc2)CC1	.	.	1%	.	.	-56%	-6%	9%
Cc1cc(C(=O)NC2CCCN(Cc3ccc(Cl)cc3)C2)n(C)n1 (stereo not given)	.	.	-18%	.	.	10%	17%	1%
COc1ccccc1NS(=O)(=O)c1cc(-c2cnc(C3CC3)o2)ccc1C	.	.	0%	.	.	-14%	9%	-3%
O=C(CSc1nc2ccccc2[nH]1)Nc1ccccc1F	-5%	5%	.	-27%	-9.4%	1%	9%	-17%
CCCn1c(COc2cccc(C)c2)nc2ccccc21	6%[46.1 µM]	14%[46.1 µM]	-12%	0%	-9.1%	.	.	.
O=C1/C(=C/c2ccccc2Cl)SC(=S)N1CCCC(=O)N(CCO)c1ccccc1	.	.	?	.	.	-40%	-6%	-2%
O=C(CS(=O)CC(=O)Nc1ccc(Cl)cc1)NCC1OCCc2ccccc21 (stereo not given)	-8%	1%	-9%	13%	8.8%	1%	0%	-3%
O=C(c1cccc(S(=O)(=O)Nc2ccccc2Cl)c1)N1CCC1	24%	-2%	26%	.	.	.	-9%	0%
